Calb biofilm kill: mixtures killing C. albicans biofilm | C. albicans biofilm persisters + clotrimazole, fluorescence viability; primary screen in compound mixtures of four per well | 0.02% of 120,000 active | inhibition, % at 7.6 µM | AID 1242;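 active = inhibition above 30.3% in the primary screen of four-compound pools, then above 30% when the compound was retested; inconclusive = passed the primary limit but could not be retested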;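 note: compounds exposed to preformed 24 h biofilms for 48 h; the number belongs to the whole pool; some results filed as inactive read as strong as hits; inactives centre near 12; 0% = biofilm with clotrimazole alone and 100% = kill control; retested singly at about 60 µM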
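Assay system: C. albicans biofilms / Medium: RPMI/MOPS medium, pH 7.0 / Schedule: biofilm formation 24 h, compound exposure 48 h, 37 °C / Measured by: Alamar Blue fluorescence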
The depositor's hits bear a star; u = inconclusive.

Compound	Calb biofilm kill
COc1ccc(NC(=O)c2scc(S(=O)(=O)C(C)C)c2N)cc1	21
COc1ccccc1OCC(=O)Nc1ccccc1C(=O)NCc1ccco1	5
O=C(NCc1ccccc1)c1ccc(F)c(F)c1	20
COc1cc(CC2COC(=O)C2(O)Cc2ccc(O)c(OC)c2)ccc1O (stereo not drawn)	18
O=C(O)c1cc2ccccc2cc1Nc1ccccc1	12
O=C(c1ccccc1NS(=O)(=O)c1cccc(C(F)(F)F)c1)N1CCc2ccccc21	19
Cc1ccc2[nH]c(=O)c(-c3noc(CC(C)C)n3)cc2c1	8
COc1cc(OC)cc(C(=O)N[C@H](C(=O)OCC(=O)N2CCc3ccccc32)C(C)C)c1	9
O=C(/C=C/c1ccc(F)cc1)NC(=S)N1CCN(Cc2ccccc2)CC1	19
C/C(=N/NC(=O)c1cccs1)c1ccco1	16
O=C(N/N=C/c1ccc(OCC(=O)N2CCCCC2)cc1)c1ccccc1O	25
CCC(=O)Nc1nnc(-c2ccccn2)o1	10
COc1ccc(OC)c(S(=O)(=O)Nc2c(C)cccc2C)c1	5
Cc1nnc(NNS(=O)(=O)c2ccc(Cl)cc2)[nH]c1=O	12
CCCCNC(=O)CCC(=O)NNc1nc2ccccc2c2nc(-c3ccccc3)nn12	4
CCN(CC)C(=O)CSc1nc(C)cc(C)n1	24
COc1cccc(OC(=O)c2cc3ccccc3oc2=O)c1	12
O=C(NC(=S)Nc1ccc(CN2CCOCC2)cc1)c1ccccc1[N+](=O)[O-]	16
CCCN1CCN(C(=S)Nc2ccc3nc(N4CCN(CC)CC4)cc(C)c3c2)CC1	17
CCOc1cc(CNCc2cccnc2)ccc1OCC(=O)NC(C)(C)C	19
Cc1cc(C)cc(N(CC(=O)NCc2ccco2)C(=O)CCC(=O)Nc2nccs2)c1	-18
COc1ccc(CCNC(=O)COC(=O)/C=C/c2cc(OC)c(OC)c(OC)c2)cc1OC	10
Cc1ccccc1OCC(=O)NNC(=O)C1CCCCC1C(=O)O (stereo not drawn)	-4
Cc1ccc(NC(=O)CCC(=O)NNC(=O)NC2CCCCC2)c(C)c1	17
CCC(c1ccccc1)c1nnc(NC(=O)c2ccco2)s1 (stereo not drawn)	11
C=CCn1c(=NC(=O)c2cccs2)sc2cccc(OC)c21	12
O=[N+]([O-])c1ccc(NC(=S)NCCc2ccccc2)cc1	16
O=C(COC(=O)c1ccc([N+](=O)[O-])s1)Nc1cccc(S(=O)(=O)NC2=NCCCCC2)c1	23
CN(Cc1cn(C)nc1-c1ccccc1F)C1CCOC1 (stereo not drawn)	33
Cc1ccc(CSc2nnc([C@@H]3CCCN3C(=O)OC(C)(C)C)o2)cc1	14
CCOC(=O)c1c(NC(=O)CSC(=S)N2CCOCC2)sc(C)c1C	11
COc1ccc(C(=O)C2CCCN(Cc3cccn3-c3cccnc3)C2)cc1OC (stereo not drawn)	23
COc1cccc(/C=N/NC(=O)C(=O)NCc2cccnc2)c1OC	25
N#Cc1cn(CCOC(=O)c2cccc(C(F)(F)F)c2)c(=O)[nH]c1=O	17
CC(C)CC(=O)N1CCN(C(=O)c2ccco2)CC1	16
COc1ccc(/C=N/OC(=O)Nc2ccccc2)cc1[N+](=O)[O-]	18
COc1ccc2c(c1)c(/C=N/Nc1ccc(C(=O)O)cc1)c(C)n2C	24
CNC(=O)/C(C#N)=C/c1cc(C)n(-c2ccc(N3CCOCC3)cc2)c1C	17
O=C(Nc1cccc(Cl)c1)Nc1ccccc1NS(=O)(=O)c1cccs1	13
CCN(C(=O)CSc1nnc(Nc2ccccc2C)s1)C1CCS(=O)(=O)C1 (stereo not drawn)	4

Taken from above.
For Calb biofilm kill, `CC(C)CC(=O)N1CCN(C(=O)c2ccco2)CC1` reads 16
For Calb biofilm kill, `O=C(Nc1cccc(Cl)c1)Nc1ccccc1NS(=O)(=O)c1cccs1` reads 13
For Calb biofilm kill, `CNC(=O)/C(C#N)=C/c1cc(C)n(-c2ccc(N3CCOCC3)cc2)c1C` reads 17
For Calb biofilm kill, `N#Cc1cn(CCOC(=O)c2cccc(C(F)(F)F)c2)c(=O)[nH]c1=O` reads 17
For Calb biofilm kill, `COc1cccc(/C=N/NC(=O)C(=O)NCc2cccnc2)c1OC` reads 25
For Calb biofilm kill, `COc1ccc2c(c1)c(/C=N/Nc1ccc(C(=O)O)cc1)c(C)n2C` reads 24

Additional records.
Compound	Calb biofilm kill
O=C(N/C(=C\c1ccc([N+](=O)[O-])cc1)C(=O)N1CCOCC1)c1ccccc1	5
CCCN1C(=O)/C(=C\C=C2/C=CN(CC)c3ccccc32)SC1=S	-3
Cc1ccc(C(=O)Nn2cnnc2)cc1S(=O)(=O)N1CCOCC1	16
CCCC1(C(=O)OCC)NC(c2ccc(OC)cc2OC)C2C(=O)N(c3ccccc3)C(=O)C21 (stereo not drawn)	16
O=C(Nc1ccc2nc3n(c(=O)c2c1)CCCC3)c1cccc([N+](=O)[O-])c1	12
CCOc1ccc(NC(=O)C2CCC(CNc3c(N4CCC(C)CC4)c(=O)c3=O)CC2)cc1 (stereo not drawn)	14
CCNC(=S)Nc1ccc2ncoc2c1	8
CC(=O)c1c(C)n(-c2ccccc2)c2ccc(OCC(N)=O)cc12	30

Continued; the last 3 above are carried over.
Compound	Calb biofilm kill
CCOc1ccc(NC(=O)C2CCC(CNc3c(N4CCC(C)CC4)c(=O)c3=O)CC2)cc1 (stereo not drawn)	14
CCNC(=S)Nc1ccc2ncoc2c1	8
CC(=O)c1c(C)n(-c2ccccc2)c2ccc(OCC(N)=O)cc12	30
O=C(COc1ccc2ccccc2c1)Nc1nnc(-c2ccco2)s1	16
COc1ccc(Nc2nc3c(C)cccn3c(=O)c2C=NCc2ccccc2)cc1	13
CC(=O)c1ccc(OCc2cc([N+](=O)[O-])cc3c2OCOC3)cc1	18
Brc1ccc(CSc2ccc(-c3ccco3)nn2)cc1	11
COc1cc(OC)cc(-c2nc3nc(C)c(CCC(=O)NCC(OC)OC)c(C)n3n2)c1	17
O=C(NC(N1CCOCC1)C(Cl)(Cl)Cl)c1ccccc1Cl (stereo not drawn)	1
Cc1cc(C(=O)COC(=O)[C@H](C)NC(=O)c2ccco2)c(C)n1Cc1ccco1	2
COc1cc(OC)cc(-c2cc3nc(C)c(CCC(=O)Nc4nc(C)cs4)c(C)n3n2)c1	7
CCCCCNC(=O)CCc1ccccc1	6
CC1COc2ccccc2N1S(=O)(=O)c1ccc(Cl)cc1 (stereo not drawn)	3
CC(C)Nc1nnc(SC(C)C(=O)Nc2ccc(Cl)cn2)s1 (stereo not drawn)	2
Clc1ccccc1-c1ncc2ccccn12	12
CCn1nnnc1SCC(=O)Nc1ccc(OC)cc1	16
NC(=O)C[C@@H]1NC(=O)c2cc([N+](=O)[O-])cc(F)c2NCCCC[C@@H](C(N)=O)NC(=O)[C@H](CO)NC1=O	13
Cc1ccc(S(=O)(=O)N2CCCCC2)cc1C(=O)Nc1ccc(S(=O)(=O)Nc2ncccn2)cc1	21
NS(=O)(=O)c1ccc(CCNC(=O)c2ccc(Cn3c(=O)[nH]c4ccccc4c3=O)cc2)cc1	13
CC(C)NC(=O)C1CC=CCC1C(=O)O (stereo not drawn)	12
O=C(c1cccc(-c2ccc(O)cc2)c1)N1CCN(c2ccc(F)cc2)CC1	11
CN(C)c1ccc(/C=N/NC(=O)c2cnc3ccccc3c2)cc1	15
O=C(c1nc2ccccn2c1CNCCCn1cccn1)N1CCCC1	-5
COc1ccc(OCCn2nnc(-c3ccc(Cl)cc3)n2)cc1	15
COC(=O)c1cc(OC)c(OC)cc1NC(=O)C(C)c1ccc([N+](=O)[O-])cc1 (stereo not drawn)	14
CCCc1cc2c(=O)n(NC(=O)c3nn(C)cc3[N+](=O)[O-])c(C)nc2s1	8
COC(=O)c1sc(SC)c(S(=O)(=O)C(C)C)c1N/N=C(\C#N)C(=O)c1ccccc1	24
O=C(Nc1ccnc(-c2ccncc2)n1)c1ccc(F)cc1	7
CCOC(=O)C1CCCN(c2cc(=O)n(C3CCCCC3)c(=O)[nH]2)C1 (stereo not drawn)	u
O=C(CCn1c(=O)oc2ccccc21)NCCN1CCOCC1	9
O=C(Nc1ccccc1C(=O)N/N=C/c1ccco1)c1ccccc1	14
COCC1CCN(Cc2cn[nH]c2-c2ccc(OC)cc2F)C1 (stereo not drawn)	12
CC(=O)C1C(c2ccc(C)cc2)c2c(noc2C)CC1(C)O (stereo not drawn)	-3
CC(C)(C)NC(=O)COC(=O)c1ccc(S(=O)(=O)N2CCCC2)cc1	3
Cc1nn(-c2nc3ccccc3[nH]2)c(=O)c2ccccc12	7
CC(C)[C@H](NS(=O)(=O)c1ccc2c(c1)OCCO2)C(=O)OCC(=O)Nc1ccccc1Cl	6
Cc1ccc(C)c(NC(=O)c2ccc(S(=O)(=O)C(F)F)cc2)c1	11
Cc1cc(C)c(N(C(=O)c2csnn2)C(C(=O)NC(C)(C)C)c2ccncc2)c(C)c1 (stereo not drawn)	11
Cc1ccc(-c2nnn(CC(=O)NCCc3ccc4c(c3)OCO4)n2)cc1	20
Cc1nnc(SCC(=O)NCc2ccc3c(c2)OCO3)n1C	10
N#CCCN(C(=O)COC(=O)Cc1ccc(Br)cc1)c1ccccc1	-12
COc1cc(NC(=O)Cc2ccc([N+](=O)[O-])cc2)c(C(=O)O)cc1OC	14
CCc1nc2ccccc2n1CCc1ccccc1	-8
Cc1cccc(NCC(=O)N/N=C\c2ccccn2)c1	3
Cc1ccc(N(CCC#N)C(=O)CN2C(=O)NC(Cc3ccccc3)C2=O)cc1 (stereo not drawn)	16
COc1cccc(NCCC(=O)c2cccc([N+](=O)[O-])c2)c1	11
CC(C)CNC(=O)c1ccccc1SCC(=O)NC12CC3CC(CC(C3)C1)C2	-4
N#C/C(=C\c1ccc(N2CCOCC2)o1)C(=O)NC1CCCCC1	18
CCOC(=O)/C(N=Nc1ccc(C(=O)O)cc1[N+](=O)[O-])=C(\C)O	10
O=C(CCn1c(=O)sc2ccccc21)NCc1ccco1	3
Cc1ccc(S(=O)(=O)N(C)C)cc1NC(=O)C1CCCCC1	10
CCS(=O)(=O)N1CCN(c2ccc([N+](=O)[O-])c(NCc3cccnc3)c2)CC1	13
COc1ccc(-n2c(Cc3ccccc3)nnc2SCC(=O)N2CCCc3ccccc32)cc1	8
CSc1nnc(C)c(=O)n1COC(=O)COc1ccccc1	9
O=C(N/N=C/c1cc(Br)ccc1O)Nc1ccccc1	4
Cc1ccc(S(=O)(=O)NNC(=O)C(O)(c2ccccc2)c2ccccc2)cc1	14
Cc1ccc(C(=O)CCC(=O)Nc2ccc(Cl)c(S(=O)(=O)Nc3cccc(Cl)c3)c2)cc1	22
O=C(NCc1ccc(F)cc1)C(=O)NCC1OCCN1S(=O)(=O)c1ccc2c(c1)OCCO2 (stereo not drawn)	14
O=C(COc1c(Cl)cc(Cl)cc1Cl)c1ccc(Cl)cc1	5

Other structures
Compound	Calb biofilm kill
Cc1ccc(C(=O)N/N=C\c2ccc(OC(=O)c3cccs3)cc2)cn1	9
CC(=O)c1cccc(N(C(=O)CNC(=O)c2ccco2)C(C(=O)NCc2ccco2)c2ccccc2)c1 (stereo not drawn)	24
C/C(CC(=O)Nc1ccc(C)cc1C)=N\NC(=O)C(C)C	20
Cn1cc([N+](=O)[O-])c(C(=O)NCc2cc3cc(Cl)ccc3[nH]2)n1	8
Cc1cc(C(=O)NN)c(C)o1	12
COc1ccc(OC)c(NC(=O)COC(=O)c2nc(Cl)ccc2Cl)c1	7
CCCCCOC(=O)Nc1ccc(S(=O)(=O)Nc2cccc([N+](=O)[O-])c2)cc1	13
CCCn1c(N2CCN(C(=O)Nc3ccc(Cl)cc3)CC2)nc2ccccc21	26
O=C1/C(=C/c2ccccc2)SC(=S)N1N1C(=O)C2CC2C1=O (stereo not drawn)	4
CCC(=O)NNC(=O)c1c(O)c2ccccc2[nH]c1=O	7
CSc1ccccc1NC(=O)Cn1nc([N+](=O)[O-])c(Cl)c1C	4
Cc1cc(C)cc(N(C(=O)CCC(=O)Nc2cc(C)on2)C(C(=O)NC2CCCC2)c2ccco2)c1 (stereo not drawn)	21
O=C(CSc1nc2sc3c(c2c(=O)[nH]1)CCC3)NCCO	16
Cc1c(/C=N\NC(=O)c2c[nH]c3ccccc23)cnn1C	13
CCN(CC)CCOCCOc1ccc(Cl)c2ccccc12	12
CCOc1cc(/C=C2\C(=O)N(CCC#N)N=C2C)ccc1OCC(N)=O	10
Cc1ccc(Sc2nc([N+](=O)[O-])nn2C)cc1	11
COCCn1c(N)c(N(Cc2ccccc2)C(=O)c2ccc3ccccc3c2)c(=O)[nH]c1=O	25
O=C1CCCC(=O)C1=C1SCCS1	15
O=C(Cn1c2ccc(F)cc2c2nc3n(c(=O)c21)CCS3)Nc1ccc(Cl)cc1F	8
CCOCCN(C(=O)c1ccccc1Cl)c1cccc(C)c1C	27
O=C(CSc1nc2ccccc2c(=O)n1-c1ccc(OC(F)F)cc1)NCc1cccs1	6
COc1ccc(C)cc1NS(=O)(=O)c1ccc2c(c1)n(C)c(=O)n2C	16
Cc1ncc(CO)c(/C=N/NC(=S)Nc2ccc(F)cc2)c1O	13
O=C(NCCO)c1cc2cc(Cl)cc(Cl)c2oc1=O	19
CN(C)S(=O)(=O)c1ccc(N2CCCC2=O)c([N+](=O)[O-])c1	0
Cc1cccc(C)c1NC(=S)N(CCN(C)C)C(C)c1ccccn1 (stereo not drawn)	18
O=Cc1c(N2CCSCC2)nc2ccccn2c1=O	11
Cc1cc(C)nc(N/N=C/c2cn[nH]c2-c2ccccc2)n1	12

Source: PubChem BioAssay (PCMD)

This is a subset. The share of hits here may be higher or lower than overall.
